From PubChem BioAssay
A647 fluor – compound autofluorescence in A647 spectral region; Compound fluorescence, A647 channel (570/671 nm), Tris buffer; max dye-equivalent concentration, M; 59,000 tested, under 10 active; AID 592; active means above 1 µM dye equivalent; inconclusive means 0.1 to 1 µM; inactive means 0.1 µM or less;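 also: values scaled relative to a standard on each plate; highest value over a series up to 38 µM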
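Compound fluorescence was measured in 100 mM Tris buffer, pH 8.0, after 15 min at room temperature, using 570 nm excitation and 671 nm emission filters. Signal was normalized to a per-plate Alexa 647 standard curve and expressed as dye-equivalent concentration at each compound concentration.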
A488 autofl – compound autofluorescence in A488 spectral region | compound autofluorescence, A488 spectral region, dye equivalency; active compounds read high | actives 0.1% (n = 59,000) | max dye equivalency, M; active = above 10 nM dye equivalent; inconclusive = 1 to 10 nM; inactive = 1 nM or less; about half of its hits are not listed in these tables;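 also: highest value over a series up to 38 µM; compound alone in buffer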
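Spectroscopic profiling in the A488 region: compounds in pH 8.0 Tris (100 mM), 15 min RT, CCD imaging with 480 nm excitation and 540 nm emission; responses normalized against A488 dye standards.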
AID923 – qHTS Assay for Allosteric/Competitive Inhibitors of Caspase-1: Spectroscopic Profiling in AFC Spectral Region | Potency, µM (titrated, usually from 57.5 µM), for inactives: top-dose fluorescence increase, actives largely listed as activators | actives 1.1% (n = 75,000) | compound fluorescence, AFC spectral region (405/520 nm); almost no hit is shown here | AID 923, 2007; active = well fitted activation curve with a large enough effect; inconclusive = small, poorly fitted or top-dose-only effect;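 also: potency is read from the fitted curve at half-maximal effect; 0% is about no effect; scaled to a free AFC standard on each plate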
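Baseline compound fluorescence (AFC region, 405 nm ex/520 nm em) taken from the intercept of kinetic reads with 50 nM caspase-1 and 5 uM Ac-WEHD-AFC; normalized to an on-plate AFC standard curve; compounds titrated up to 57 uM.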
TSHR ag – TSH receptor (human) agonism; P16473; HEK293-CNG-TSHR cells (CNG channel as cAMP sensor), membrane potential dye, cAMP; Potency, µM (doses to about 57.1 µM), without a hit: at the highest dose activation, actives largely listed as activators; actives 0.48% (n = 73,000); AID 926; active = well fitted activation curve of enough size with the parental cells flat; inconclusive = any curve in the parental cells; inactive = parental cells flat and receptor cells flat or falling; also: potency is read from the fitted curve at half-maximal effect; % of control where 0% means no effect; weak receptor curves with flat parental cells got no call and are not listed
Target sequence (P16473 whole entry, looked up): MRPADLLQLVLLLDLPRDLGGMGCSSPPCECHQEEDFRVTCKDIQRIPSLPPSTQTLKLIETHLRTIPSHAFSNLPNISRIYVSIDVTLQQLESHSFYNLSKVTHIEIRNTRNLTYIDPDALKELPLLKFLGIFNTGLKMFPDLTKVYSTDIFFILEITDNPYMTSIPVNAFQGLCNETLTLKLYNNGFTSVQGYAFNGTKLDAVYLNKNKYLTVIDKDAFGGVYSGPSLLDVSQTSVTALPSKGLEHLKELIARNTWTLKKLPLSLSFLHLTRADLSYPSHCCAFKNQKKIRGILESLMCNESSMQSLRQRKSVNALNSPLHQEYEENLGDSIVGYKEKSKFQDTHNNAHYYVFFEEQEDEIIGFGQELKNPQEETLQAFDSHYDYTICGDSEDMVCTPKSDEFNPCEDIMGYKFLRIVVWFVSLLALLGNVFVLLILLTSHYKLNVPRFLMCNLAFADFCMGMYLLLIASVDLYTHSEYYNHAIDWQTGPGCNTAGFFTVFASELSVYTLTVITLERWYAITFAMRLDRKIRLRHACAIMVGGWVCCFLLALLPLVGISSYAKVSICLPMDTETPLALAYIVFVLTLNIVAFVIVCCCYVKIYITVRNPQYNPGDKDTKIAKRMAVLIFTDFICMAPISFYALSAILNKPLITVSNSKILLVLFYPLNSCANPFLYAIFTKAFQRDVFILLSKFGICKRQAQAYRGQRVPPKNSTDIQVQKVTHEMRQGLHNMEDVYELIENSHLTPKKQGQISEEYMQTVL
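cAMP rise detected as CNG-channel membrane depolarization by fluorescent dye (emission 590 nm), 30 min after compound, following 60 min dye loading containing 100 uM RO 20-1724 at room temperature. Cells: TSHR/CNG HEK 293, with parental CNG HEK 293 as control.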
Resorufin autofl – compound fluoresces in the resorufin spectral region; Compound fluorescence, resorufin region 547/598 nm, buffer; active compounds read high; max dye-equivalent concentration, M; actives 0.04% (n = 59,000); active = above 10 nM dye equivalent; inconclusive = 1 to 10 nM; inactive = 1 nM or less; a few of its hits are not listed in these tables; also: highest value over a series up to 38 µM
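Dye-equivalent concentration values derive from comparing each well's 547/598 nm fluorescence against resorufin standards included on every plate. Incubation was 15 min at room temperature in 100 mM Tris, pH 8.0.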
Numbers without * were called inactive; i = inactive; ? = inconclusive; nt = no result given; & = joins results of further samples; [ ] = dose if it differs, or a comment. Not all compounds are listed. The share of hits here may be higher or lower than overall.

Sequence of screens: A647 fluor	A488 autofl	AID923	TSHR ag	Resorufin autofl
- CCC(=O)OC1(c2cccc(C)c2)CC(C)N(C)CC1C (configuration not stated)
→ 3.1e-09	i	-0.8%	5%	i
- Clc1ccc(CO[C@@H](Cn2ccnc2)c2ccc(Cl)cc2Cl)cc1
→ 7.4e-09	i	0.8%[25.7 µM]	?	i
- COC(=O)/C=C\C(=O)N[C@@H]1CC[C@@]2(O)[C@H]3Cc4ccc(O)c5c4[C@@]2(CCN3CC2CC2)[C@@H]1O5
→ nt	nt	-1.6%	-1%	nt
- O=C(C1CC(c2ccc(Cl)c(Cl)c2)=NO1)N1CCC2(CC1)OCCO2 (configuration not stated)
→ 2.1e-08	i	0.8%	4%	i
- CN1CCN(c2ncnc3ccc(Br)cc23)CC1
→ nt	nt	0.9%	-2%	nt
- CCCSc1nc(O)c(CC)c(=O)n1C(C)CC (configuration not stated)
→ 1.9e-08	i	0.0%	-2%	i
- Nc1ccccc1-c1ccccc1
→ nt	nt	2.1%	-7%	nt
- CC(C)N(CC[C@@](C(N)=O)(c1ccccc1)c1ccccn1)C(C)C
→ 1e-09&6.2e-09&1.6e-08	i	0.5%[25.7 µM]	?	i
- O=P1(Nc2cccnc2)COc2ccccc2OC1
→ 1e-09	i	2.5%	4%	i
- CNP(=S)(NC)OCCOc1ccc(OC)cc1
→ 3.8e-09	i	-0.7%	2%	i
- COc1ccc(Cl)cc1NC1=NCC(C)S1 (configuration not stated)
→ 7.5e-09	i	-1.4%	nt	i
- COC(=O)c1ccccc1N
→ nt	nt	-1.0%	-9%	nt
- C[C@@H](Cc1cccc(C(F)(F)F)c1)NCCCc1ccccc1
→ nt	nt	-1.4%	?	nt
- [O]=[Cd]
→ nt	nt	1.1%	2%	nt
- CN1C(=O)C(Cc2cccc3ccccc23)C(=O)N(C)C1=O
→ nt	nt	3.4%	5%[11.4 µM]	nt
- Cc1c(N=Cc2c(O)n(CCc3ccc(F)cc3)c(=O)[nH]c2=O)c(=O)n(-c2ccccc2)n1C
→ 4.1e-09	i	nt	nt	i
- N[C@@H](Cn1oc(=O)[nH]c1=O)C(=O)O
→ nt	nt	-3.3%	5%	nt
- Cc1c2cnn(CC(=O)N3CCC4(CC3)OCCO4)c(=O)c2c(C)n1Cc1ccccc1F
→ nt	nt	8.3%	?	nt
- C=C(C)C(=O)OCC1CO1 (configuration not stated)
→ nt	nt	-2.2%	-4%	nt
- CN1C(=O)N(C)C(=O)C2(Cc3ccccc3N3CCOCC32)C1=O (configuration not stated)
→ 2.2e-09	i	1.1%	-5%	i
- CC1(C)CC(n2[nH]c(=O)c3c2NC(=O)CSC3c2ccc(F)cc2)CCO1 (configuration not stated)
→ 2e-08	i	-0.9%	-3%	i
- CO[C@@H](C)[C@](O)(C(=O)OCC1=CCN2CC[C@@H](O)[C@H]12)C(C)C
→ 1e-09	i	3.4%[25.7 µM]	6%[25.6 µM]	i
- C(#CCN1CCOCC1)COC/C=C/c1ccccc1
→ 2.9e-09	i	-0.8%	-2%	i
- Cn1c(=O)cc(OCC(=O)N2CCN(Cc3ccc4c(c3)OCO4)CC2)c2ccccc21
→ 1e-09	i	0.2%	-1%[11.4 µM]	i
- O=C(O)/C=C\CO
→ nt	nt	1.6%	10%	nt
- COc1ccc(CC2C(=O)N(C)C(=O)N(C)C2=O)c(OC)c1
→ 1e-09	i	-2.1%	0%	i
- O=C(N[C@H]1CN2CCC1CC2)c1ccc(Cl)cc1
→ nt	nt	0.7%	?	nt
- O=[As](O)(O)c1ccc(N=Nc2ccc([As](=O)(O)O)cc2)cc1
→ 1e-09	i	0.2%[11.5 µM]	-2%[11.4 µM]	i
- O=C(c1cc2ccccc2oc1=O)N1CCC2(CC1)OCCO2
→ 3.1e-09	i	-2.4%	-6%	i
- NC(=O)c1cc(N2CC2)c([N+](=O)[O-])cc1[N+](=O)[O-]
→ 5.9e-08	i	0.6%	4%	i

Record cards, from the list above.
O=C(O)/C=C\CO across the screens: A647 fluor: nt; A488 autofl: nt; AID923: 1.6%; TSHR ag: 10%; Resorufin autofl: nt
Nc1ccccc1-c1ccccc1 across the screens: A647 fluor: nt; A488 autofl: nt; AID923: 2.1%; TSHR ag: -7%; Resorufin autofl: nt

Remaining list, next part:
Sequence of screens: A647 fluor	A488 autofl	AID923	TSHR ag	Resorufin autofl
- O=C(c1cc(-c2ccccc2)nc2ccccc12)N1CCC2(CC1)OCCO2
→ 1e-09	i	-0.7%	27%	i
- C=C(C)[C@H]1CN[C@H](C(=O)O)[C@@H]1CC(=O)O
→ nt	nt	-2.6%	7%	nt
- CCCCOC(=O)COc1cc(C)cc2oc(=O)c3c(c12)CCC3
→ nt	nt	-1.9%	1%	nt
- C=CC#N
→ nt	nt	-2.7%	?	nt
- C[C@@]12CC[C@H](O[C@@H]3O[C@H](CO)[C@@H](O)[C@H](O)[C@@H]3O)C[C@@H]1CC[C@H]1[C@H]2CC[C@@]2(C)[C@@H](C3=CCOC3=O)CC[C@]12O
→ 2.3e-09	i	-0.6%[11.5 µM]	-7%[11.4 µM]	i
- Nc1c(Br)cc([N+](=O)[O-])cc1[N+](=O)[O-]
→ nt	nt	-0.9%	-3%	nt
- O=P(CN1CCN(c2ccccc2)CC1)(N1CCCCC1)N1CCCCC1
→ 1.8e-09	i	-0.2%	?	i
- FC(F)(F)c1nc2ccc(SSc3ccc4nc(C(F)(F)F)[nH]c4c3)cc2[nH]1
→ 4.7e-09	i	-1.0%[11.5 µM]	-4%[11.4 µM]	i
- O/N=C1/C(=C\c2ccccc2)N2CCC1CC2
→ 1e-09	i	-0.5%	6%	i
- Cc1sc2ncn(CC(=O)NCC(=O)N3CCC4(CC3)OCCO4)c(=O)c2c1C
→ 1.4e-08	i	-0.6%	-1%[11.4 µM]	i
- CC(C)(c1ccccc1)c1ccc(O)cc1
→ nt	nt	-0.6%	-7%	nt
- Cc1n[nH]c(C)c1CCN
→ 2.2e-08	i	0.3%	4%	i
- COC(=O)CC1(CC(=O)OC)C(=O)NC(=O)NC1=O
→ nt	nt	1.2%	-3%	nt
- Fc1ccc(NC2=NCCS2)cc1Cl
→ 1e-09	i	-1.1%	0%	i
- COC(=O)c1c(C)ccc2c(O)c3c(cc12)C(=O)c1c2c(cc(O)c1C3=O)[C@@]1(C)O[C@@](C)(O2)[C@@H](O)[C@H](N(C)C)[C@H]1O
→ 1.5e-08	i	-3.6%[11.5 µM]	-3%[11.4 µM]	i
- COc1ccc(S(=O)(=O)Cc2ccc(C(=O)N3CCC4(CC3)OCCO4)o2)cc1
→ 1e-09	i	0.5%	4%	i
- C#C[C@@]1(O)CC[C@@H]2[C@@H]3CCC4=CC(=O)CC[C@@]4(C)[C@H]3CC[C@]21C
→ 4.9e-09	i	2.1%[25.7 µM]	nt	i
- O=C(Cc1ccc(Cl)c(Cl)c1)N1CCCC[C@H]1CN1CCCC1
→ 6.7e-09	i	-1.1%&1.0%	7%&8%	i
- CCOC(=O)[C@@]1(C#N)[C@@H]2C=CC(C(N)=O)=CN2[C@@H](C(N)=O)[C@@H]1c1cccc(Cl)c1
→ 4.3e-08	i	nt	nt	i
- C[C@@]12CC[C@H]3[C@@H](CC[C@H]4C[C@@H](O)CC[C@]43C)[C@H]1CC[C@@H]2C(=O)C[C@H](O)C(F)(F)F
→ 1.7e-08	i	-0.6%[11.5 µM]	9%[11.4 µM]	i
- CNCCc1c(C)n[nH]c1C
→ 4.7e-09	i	0.2%	-2%	i
- O=c1[nH]c(=O)n(Cc2ccccc2)c(O)c1C=NCCN1CCOCC1
→ 4.8e-08	i	nt	nt	i
- CN(C)c1ccc(N=O)cc1
→ nt	nt	-1.9%	?	nt
- CCCCCCCCn1sccc1=O
→ nt	nt	-1.7%	?	nt
- CSCC[C@@H](N)P(C)(=O)O
→ 1e-09	i	3.7%[11.5 µM]	-3%[11.4 µM]	i
- Cn1c(O)c(C=NCCN2CCN(C(=O)c3ccccc3)CC2)c(=O)n(C)c1=O
→ nt	nt	0.6%	-5%	nt
- CCOC(=O)CC(SP(=S)(OC)OC)C(=O)OCC (configuration not stated)
→ nt	nt	-2.8%	?	nt
- O=C(CCCOc1ccc(Cl)cc1Cl)N1CCC2(CC1)OCCO2
→ 2.5e-09	i	0.6%	nt	i
- CSc1nnc([C@@H](N)Cc2ccccc2)o1
→ 2.1e-08	i	1.4%	-1%	i
- CCn1c(=O)cc(OCC(=O)N2CCN(Cc3ccc4c(c3)OCO4)CC2)c2ccccc21
→ 1e-09	i	-0.6%	3%[11.4 µM]	i
- O=C(CN1CC(c2ccccc2)CC1=O)Nc1ccc(F)cc1 (configuration not stated)
→ nt	nt	-3.2%	-5%	nt
- Cc1cc(C)c(C(=O)CN2CCOCC2)c(C)c1
→ 3e-08	i	0.0%	-3%[11.4 µM]	i
- CCOc1ccc(Br)c(C2(O)CC(C)N(C)CC2C)c1 (configuration not stated)
→ 1e-09	i	-2.7%	7%	i
- CC(C)c1c(CN(C)[C@@H](C)Cc2ccccc2)n(C)n(-c2ccccc2)c1=O
→ 1e-09	i	-0.2%[25.7 µM]	nt	i
- Clc1ccc([C@@H]2C[C@H]3CC[C@@H]2N3)cn1
→ nt	nt	-0.3%	2%	nt
- O=c1cccc2n1CC1CC2CN(C(c2cccc(F)c2)c2sc3ncnn3c2O)C1 (configuration not stated)
→ nt	nt	-2.2%	-2%	nt
- CCN(CC)CCCN=C(C)c1c(O)n(-c2ccccc2)c(=O)[nH]c1=O
→ 4.7e-09	i	0.8%	-1%	i
- O=c1[nH]c(=O)n(Cc2ccco2)c(O)c1C=NC1CC1
→ 1e-09	i	-1.9%	nt	i
- N#Cc1ccc(N2CCNCC2)c(F)c1
→ 2.1e-08	i	-1.2%	2%	i
- c1ccc(N2CCCC3(CCNCC3)C2)nc1
→ 1.5e-08	i	0.8%	?	i
- c1cncc(C2CCCCN2Cc2ccc3c(c2)OCO3)c1 (configuration not stated)
→ nt	nt	0.3%	16%	nt
- CCCN1CCc2cccc3c2[C@@H]1Cc1ccc(O)c(O)c1-3
→ 1e-09	i	-4.2%	1%	i
- Cn1cnc(CCN)c1
→ 8.6e-09	i	-0.9%	nt	i
- CCC(=Nc1ccc(OC)cc1OC)c1c(O)n(C2CCCCC2)c(=O)[nH]c1=O
→ 2.8e-08	i	0.6%	?	i
- CN1C(=O)C(Cc2ccc3c(c2)OCO3)C(=O)N(C)C1=O
→ nt	nt	0.3%	-1%	nt
- Cc1cc(N2C(=O)C3CCCN3C2c2sccc2C)no1 (configuration not stated)
→ 5.6e-09	i	1.6%	3%	i
- c1ccc2c(c1)CCNC2
→ nt	nt	1.5%	6%	nt
- OCCCCO
→ nt	nt	3.1%	-9%	nt
- O=S(=O)(O)c1cc(O)ccc1O
→ 3e-09	i	1.3%[25.7 µM]	-3%[25.6 µM]	i
- CC(C(=O)N1CCC2(CC1)OCCO2)C1Sc2ccccc2NC1=O (configuration not stated)
→ 2.8e-08	i	1.9%	0%	i
- CN(C)C=C1C(=O)N(C2CCCCC2)C(=O)N(C2CCCCC2)C1=O
→ 1.2e-08	i	-1.9%	-1%	i
- COCC(C)OC(=O)c1c(N)n(Cc2ccco2)c2nc3ccccc3nc12 (configuration not stated)
→ 1e-09	i	nt	nt	i
- O=C(Cc1ccccc1)N1CCN(C/C=C/c2ccccc2)CC1
→ 1.5e-08	i	1.5%	1%	i
- O=c1[nH]c(=O)n(-c2cccc(Cl)c2)c(O)c1C=NCCN1CCCCC1
→ 8.5e-09	i	nt	nt	i
- COc1ccc(N2C(=O)CC(N3CC=C(c4ccccc4)CC3)C2=O)cc1 (configuration not stated)
→ nt	nt	0.4%	1%	nt
- CC1CN=C(Nc2ccc(N(C)C)cc2)S1 (configuration not stated)
→ 2.9e-08	i	nt	nt	i
- CN1C[C@@H](CS(=O)(=O)N(C)C)C[C@H]2c3cccc4c3c(cn4C)C[C@@H]21
→ 1e-09	i	-1.6%	4%	i
- CC(C)COC(=O)c1ccccc1C(=O)OCC(C)C
→ nt	nt	-0.5%	?	nt
